Screening results (PubChem)
VDR inh: vitamin D3 receptor (human) inhibition. Potency, µM, without a hit: max response, negative = inhibition, usual class: inhibitors. AID 504847. VDR-SRC2-3 peptide fluorescence polarization, 2 h. hit rate 0.93% among 400,000. P11473; active = well fitted inhibition curve with a large enough effect; inconclusive = small, poorly fitted or top-dose-only effect, or another doubt; inactive = no such curve, though single readings can be large or run the other way; note: series mostly up to about 120 µM
Target sequence (P11473 whole entry, looked up): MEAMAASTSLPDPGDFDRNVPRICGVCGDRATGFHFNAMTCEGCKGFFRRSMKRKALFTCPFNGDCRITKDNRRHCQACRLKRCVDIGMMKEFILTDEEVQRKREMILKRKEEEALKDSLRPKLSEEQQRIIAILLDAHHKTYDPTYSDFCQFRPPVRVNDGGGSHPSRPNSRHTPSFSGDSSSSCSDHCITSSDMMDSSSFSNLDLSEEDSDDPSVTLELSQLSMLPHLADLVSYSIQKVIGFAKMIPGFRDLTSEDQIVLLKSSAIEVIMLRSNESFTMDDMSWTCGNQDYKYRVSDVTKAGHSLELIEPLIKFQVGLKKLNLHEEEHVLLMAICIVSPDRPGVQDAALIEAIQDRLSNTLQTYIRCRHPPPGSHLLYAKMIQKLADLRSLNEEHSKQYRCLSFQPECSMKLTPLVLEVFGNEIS
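Signal is fluorescence polarization, reporting how far test compounds block the interaction of VDR with the SRC2-3 coregulator peptide after a 2 h room-temperature incubation.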
Starred values were filed as active, the others as inactive; ? = inconclusive; & = joins results of further samples. % is set by controls: 0 for no effect and ±100 for the full control effect; potency is the fitted concentration of half-maximal effect. A portion of the library; the hit share may differ from the screen's.

No.	mol	VDR inh
1	COC(=O)c1ccc2c(=O)n(CCN3CCOCC3)c(SCC(=O)Nc3cccc(OC)c3)nc2c1	-1.8%
2	CCC(c1nnc(SCCNCCO)n1CCN1CCOCC1)N(C)C (stereo unspecified)	19.2%
3	CCOC(=O)C1(Cc2ccccc2)CCCN(Cc2ccc(OCC)c(CO)c2)C1 (stereo unspecified)	1.8%
4	COc1cccc(NC(=S)N(CCN(C)C)C(C)c2ccncc2)c1 (stereo unspecified)	0.5%
5	CN(c1ccccc1)c1ncccn1	-10.5%
6	Cc1ccc(CNC(=O)CSc2nc(N3CCCCC3)nc(N3CCCCC3)n2)cc1	-2.3%
7	CCCc1nnc(NC(=O)CCC(=O)NCCc2ccc(OC)c(OC)c2)s1	6.8%
8	COc1ccc(Nc2nc(CC(C)=O)ns2)cc1	15.2%
9	COc1cc(CNCc2cccs2)ccc1OCc1ccccc1	-16.9%
10	O=C(CCCn1c(=O)[nH]c2ccsc2c1=O)N1CCCCC1	-8.8%
11	CCS(=O)(=O)N1Cc2ccccc2CC1C(=O)NCCc1ccccc1 (stereo unspecified)	7.6%
12	Cc1sc(NC(=O)CN(Cc2ccccc2)C(=O)C2CC2)c(C(N)=O)c1C	9.3%
13	Cc1ccc(N(CC(=O)NCc2ccco2)C(=O)CCC(=O)Nc2nccs2)c(C)c1	-4.2%
14	O=C(CSCc1ccccc1Cl)NN=C1CCCCCC1	-6.9%
15	CC(=O)NCCNc1ncnc2ccc(-c3ccc4c(c3)OCO4)cc12	-15.8%
16	CCCCCCc1ccc(N2C[C@H](C)[C@@H](CC(=O)NCc3ccccc3)C2=O)cc1	8.5%
17	Cc1cc(C)n2nc(-c3cccnc3)nc2n1	-6.7%
18	Cc1ccc(S(=O)(=O)N2CCC(C(=O)OC(C)C(=O)NC3CCCCC3C)CC2)cc1 (stereo unspecified)	-12.7%
19	COc1cccc(N/C=C/c2onc(C)c2[N+](=O)[O-])c1	-5.5%
20	CC(NC(=O)NC1CCCCC1)C(c1cccs1)N1CCN(c2ccccc2)CC1 (stereo unspecified)	-6.6%
21	COc1ccc(-n2c(=O)cc(N3CCN(c4ccccc4OC)CC3)[nH]c2=O)cc1	3.5%
22	CC(C)(C)c1cc(NCc2ccccn2)n2ncc(-c3ccc(Cl)cc3)c2n1	?
23	CCOC(=O)C1CCN(C(=O)c2cccc(NC3=NC4CS(=O)(=O)CC4S3)c2)CC1 (stereo unspecified)	-9.7%
24	COc1cccc(NC(=O)CCC2CCN(C(=O)c3sccc3C)CC2)c1	12.5%
25	COc1ccc(CCNC(=O)c2c(C)nn(-c3ccc(F)cc3)c2-n2cccc2)c(OC)c1OC	-3.3%
26	C=CC[C@@H](CC(=O)N[C@@H](CO)Cc1ccccc1)C(=O)N[C@H](COC(=O)[C@@H](CC=C)Cc1ccc(F)cc1)Cc1c[nH]c2ccccc12	6.0%
27	Cn1nc(-c2ccc(C(=O)NCC3CCCO3)cc2)c2ccccc2c1=O (stereo unspecified)	2.9%
28	NC(=S)N1N=C(c2ccccc2)CC1=O	-13.6%
29	O=C(CCc1nc2sc3c(c2c(=O)[nH]1)CCCC3)NCCOc1ccccc1	-15.9%
30	O=c1n(CC2CO2)c(=O)n(CC2CO2)c(=O)n1CC1CO1 (stereo unspecified)	-25.7%&-1.4%

Entries from the list above with a halogen, in the order listed:
No.	mol	VDR inh
14	O=C(CSCc1ccccc1Cl)NN=C1CCCCCC1	-6.9%
22	CC(C)(C)c1cc(NCc2ccccn2)n2ncc(-c3ccc(Cl)cc3)c2n1	?
25	COc1ccc(CCNC(=O)c2c(C)nn(-c3ccc(F)cc3)c2-n2cccc2)c(OC)c1OC	-3.3%
26	C=CC[C@@H](CC(=O)N[C@@H](CO)Cc1ccccc1)C(=O)N[C@H](COC(=O)[C@@H](CC=C)Cc1ccc(F)cc1)Cc1c[nH]c2ccccc12	6.0%

(listing goes on)
No.	mol	VDR inh
31	CCCn1c(C)cc(-c2csc(NC(=O)CCc3nc4ccccc4c(=O)[nH]3)n2)c1C	-18.6%
32	CCNC(=S)N1CCN(S(=O)(=O)c2cccc(C(F)(F)F)c2)CC1	-4.1%
33	CC(C)(C)Cc1nnc(NS(=O)(=O)c2ccc(F)cc2)s1	-1.3%
34	C=CCN1C(=O)/C(=C2\SC(N3CCOCC3)=NC2=O)c2cc(Br)ccc21	-5.6%
35	O=C(NCc1ccccc1Cl)c1ccc(Br)o1	1.3%
36	N#C/C(=C\c1cn[nH]c1-c1ccccc1Br)C(=O)O	-3.3%
37	O=C(c1ccco1)N(Cc1ccc([N+](=O)[O-])cc1)c1ccc(Br)cc1	1.6%
38	Cc1cccc(CN2CCN(C(c3ccccc3)c3ccc(Cl)cc3)CC2)c1 (stereo unspecified)	?
39	COC(=O)NNC(=O)CCCOc1ccc(Cl)cc1Cl	-9.2%
40	Cc1ccc(S(=O)(=O)CCC(=O)NCCN2C(=O)S/C(=C/c3ccc(F)cc3)C2=O)cc1	-20.4%
41	CCOC(=O)c1ccccc1NC(=O)CN1C(=O)CC(c2ccccc2)Sc2ccccc21 (stereo unspecified)	-5.9%
42	Cc1ncc(CN2CCN(CCc3ccccc3)C(CCO)C2)s1 (stereo unspecified)	7.4%
43	Cc1cc(NC(=O)c2ccccc2F)n(C(C)(C)C)n1	-4.9%
44	Cc1cccc(S(=O)(=O)c2c(N)n(/N=C/c3ccco3)c3nc4ccccc4nc23)c1	18.7%
45	O=C1CCCN1CCC12CC3CC(CC(C3)C1)C2	?
46	CCOC(=O)C1=C(N)N2C(=O)CSC2=C(C(=O)OC)C1	2.0%
47	O=C(NNc1cccc(Cl)n1)C1CC1	-12.8%
48	O=C(CC(Cc1ccccc1)C(=O)O)Nc1ccc(F)cc1 (stereo unspecified)	-6.0%
49	CCc1ccc(NC(=O)C2CCN(c3nnc(-n4c(C)ccc4C)s3)CC2)cc1	3.1%
50	COc1cccc(CNC(=O)Cn2c(=O)oc3ccccc32)c1OC	3.1%

Of the compounds above, these have a COOH group.
No.	mol	VDR inh
36	N#C/C(=C\c1cn[nH]c1-c1ccccc1Br)C(=O)O	-3.3%
48	O=C(CC(Cc1ccccc1)C(=O)O)Nc1ccc(F)cc1 (stereo unspecified)	-6.0%

Following part:
No.	mol	VDR inh
51	CSc1nc2ccccc2cc1/C=C(\C#N)c1cccc(C)c1	-2.4%
52	CCOC(=O)[C@H]1[C@H]2COc3ccc(Br)cc3[C@@H]2N2C(=O)CN(Cc3ccc(Cl)cc3)C(=O)[C@@]12C	-2.6%
53	N#Cc1nc(COc2cccc(Cl)c2)oc1N1CCCC1	-22.6%
54	O=C(N/N=C/c1ccc2c(c1)OCCO2)c1ccncc1	-9.8%
55	COc1ccc(N2CCN(C(=O)C3Cc4ccccc4CN3C(=O)c3ccco3)CC2)cc1 (stereo unspecified)	-0.7%
56	Cc1c(C(=O)NCc2c(F)cc(F)cc2F)oc2ccc(S(=O)(=O)N3CCOCC3)cc12	?
57	Cc1c(NC(=O)C2(c3ccc(Cl)cc3)CCCC2)c(=O)n(-c2ccccc2)n1C	2.8%
58	CCc1ccc2nc(N(CCCN(C)C)C(=O)c3ccc(C(=O)c4ccccc4)cc3)sc2c1	-15.1%
59	CN(Cc1ccccc1)c1nc2c(c(=O)[nH]c(=O)n2C)n1CCSc1nc2ccccc2[nH]1	-1.1%
60	NC(=O)c1cnn(-c2cccc(Cl)c2)c1N	-0.7%

Reformatted field by field: 3 of the compounds above.
18	Cc1ccc(S(=O)(=O)N2CCC(C(=O)OC(C)C(=O)NC3CCCCC3C)CC2)cc1 (stereo unspecified)
  VDR inh: -12.7%

19	COc1cccc(N/C=C/c2onc(C)c2[N+](=O)[O-])c1
  VDR inh: -5.5%

20	CC(NC(=O)NC1CCCCC1)C(c1cccs1)N1CCN(c2ccccc2)CC1 (stereo unspecified)
  VDR inh: -6.6%

(listing goes on)
No.	mol	VDR inh
61	Cc1cccc2nc(CSc3nc4ccc([N+](=O)[O-])cc4[nH]3)c(Br)n12	?
62	O=Cc1ccc(-c2cccc(C(=O)O)c2)o1	-20.4%
63	Cc1ccc(C(=O)CCC(=O)OCC(=O)NNC(=O)c2ccc([N+](=O)[O-])cc2)cc1	2.9%
64	O=C(CN(Cc1ccc(F)cc1)C(=O)CCC(=O)Nc1nccs1)NCc1ccc(F)cc1	-9.4%
65	Nc1c(C(=O)c2cccs2)sc2nsc(SCCN3CCCCC3)c12	1.5%
66	CCOC(=O)CSC1=Nc2ccccc2C2=NC(CC(=O)NCc3ccc4c(c3)OCO4)C(=O)N12 (stereo unspecified)	-2.4%
67	CCOc1ccc(NC(=O)NCc2ccc3c(c2)OCO3)cc1	-2.0%
68	CC(=O)Nc1ccc(NC(=O)CSc2ccc3nnc(CCNS(=O)(=O)c4ccc(C)cc4)n3n2)cc1	?
69	Cc1cc(C(=O)N2CCN(c3ccccn3)CC2)c(C)o1	-4.4%
70	CS(=O)(=O)N1CCN(c2nc3ccc(Cl)cc3s2)CC1	-6.2%
71	COc1ccccc1N(CC(=O)Nc1ccccc1F)S(C)(=O)=O	5.4%
72	COc1ccc(OCC(=O)OCC(=O)NCC2CCCCC2)cc1	8.2%
73	COCC(=O)Nc1cc(OC)cc(OC)c1	10.4%
74	CC(=O)Nc1cccc(-c2cnc3ccccc3n2)c1	-11.7%
75	COc1ccc(C(=O)Nc2ccccc2C(=O)N2CCOCC2)cc1Br	-8.4%
76	CCOc1ccccc1NC(=O)CSc1nc2c(oc3ccccc32)c(=O)n1C(C)C	-10.4%
77	CCOC(=O)Cn1c(=O)oc2cc(S(=O)(=O)NC3CCCc4ccccc43)ccc21 (stereo unspecified)	13.8%
78	COC(=O)C(NC(=O)CN1C(=O)c2ccccc2C1=O)c1ccc(O)c(OC)c1 (stereo unspecified)	6.8%
79	Cc1ccc(C)c(NC(=S)N2C3CCCC2CC(NC(=O)C2CC2)C3)c1 (stereo unspecified)	-2.8%
80	Cc1ccc(/C=C/c2nnc(-c3ccc(C)cc3)o2)cc1	12.2%
81	CC(C)Cc1nnc(NC(=O)Nc2ccccc2)s1	0.4%
82	Cc1ccc(-c2nc(-c3cccs3)c(-c3cccs3)[nH]2)cc1	13.3%
83	O=C(O)c1ccccc1NS(=O)(=O)c1ccc2ccccc2c1	-6.6%
84	COc1ccc(CNc2nc3c(c(=O)[nH]c(=O)n3C)n2CCCc2ccccc2)cc1	13.3%
85	Cc1ccc2oc(C(=O)Nc3ccc(S(=O)(=O)N(C)c4ccccc4)cc3)cc(=O)c2c1	0.6%
86	O=C(N/N=C/c1ccc([N+](=O)[O-])o1)c1cc2c(ccc3ccccc32)o1	-11.2%
87	CCn1c(=O)c2cc(C(=O)N(C)c3cc(C)ccc3C)sc2c2ccccc21	-1.9%
88	Cc1cc(C)cc(NC(=S)NCC2CCCO2)c1 (stereo unspecified)	0.4%
89	CC(CCc1ccccc1)NC(=O)COC(=O)c1ccc([N+](=O)[O-])cc1 (stereo unspecified)	8.6%
90	Cc1c(CCC(=O)NCc2cccc(Cl)c2)c(=O)oc2c(C)c(O)ccc12	17.6%
91	CNC(=S)N1N=C(c2ccc(C)cc2)CC1c1ccc(OC)cc1 (stereo unspecified)	7.3%
92	O=C(CSc1nnc2ccc(-c3ccc(Br)cc3)nn12)NCC1CCCO1 (stereo unspecified)	-0.1%
93	CCO[C@@H]1OC(C(N)=O)=C[C@H](c2coc3ccccc3c2=O)[C@H]1CCCO	-18.7%
94	CC(=O)Nc1ccc(C(=O)CSc2nnc(-c3ccc(O)cc3)n2CC2CCCO2)cc1 (stereo unspecified)	-2.8%
95	COc1cccc(N=Cc2nc(-c3ccccc3)oc2OC(C)=O)c1	?
96	CCOc1ccc(CCNC(=O)Cn2ccc3cc(S(=O)(=O)N4CCCCCC4)ccc32)cc1	2.8%
97	O=S(=O)(NCCc1csc(-c2ccc(F)cc2)n1)c1ccc(Cl)cc1	10.3%
98	Cc1c(OCC(=O)NCCCN2CCCC2=O)ccc2c3c(c(=O)oc12)CCC3	-12.8%
99	Cc1cc2nnc(SCC(=O)Nc3cccc(S(=O)(=O)N4CCOCC4)c3)n2c2ccccc12	3.4%
100	CCCN(CC(=O)Nc1ccc(F)c(F)c1F)Cc1cc(=O)n2ccsc2n1	-8.8%
101	CC1CC(C)CN(C(=O)CSc2n[nH]c(N)n2)C1 (stereo unspecified)	-1.6%
102	COC(=O)C1=NNC2(c3ccc(C)cc3)C(=O)N(c3cccc(C)c3C)C(=O)C12 (stereo unspecified)	-27.9%
103	CCN(CC)Cc1cc(NC2=NS(=O)(=O)c3ccccc32)ccc1OC(=O)c1ccccc1	-17.1%
104	O=C(O)Cn1nnnc1SCC(=O)Nc1ccc(OC(F)(F)F)cc1	-4.4%
105	CN1CCCC(OC(=O)c2cc(Cl)cc(Cl)c2)C1 (stereo unspecified)	-2.8%
106	CCNC(=O)CSc1nnc(-c2ccccc2Br)n1-c1cccc(C(F)(F)F)c1	-24.6%
107	Cc1[nH]c(N)nc(=S)c1CCCNc1ccccc1	-6.8%
108	Cc1cc2c(cc1C)C(c1ccccc1Br)CC(=O)N2 (stereo unspecified)	-4.5%
109	CCc1ccccc1NC(=O)Cn1nnc2sc3c(c2c1=O)CCC(C(C)(C)C)C3 (stereo unspecified)	-2.8%
110	Cn1c(SCC(=O)Nc2ncc(C(F)(F)F)cc2Cl)nnc1-c1ccc(Cl)cc1	5.8%

Next part
No.	mol	VDR inh
111	O=C1C(=O)N(c2ccccc2)C(c2ccccc2[N+](=O)[O-])/C1=C(\O)c1ccccc1 (stereo unspecified)	5.7%
112	CCCn1c(CCl)nc2cc(S(=O)(=O)N3CCOCC3)ccc21	2.7%
113	C=CCc1cccc(CNc2nc3ccccc3n2C(C)C)c1O	-28.4%
114	CC(SC1CCCC1)C(=O)NC(C)(C#N)C(C)C (stereo unspecified)	-5.0%
